AID504770: E. coli YBA685 growth inhibition, screen for V. cholerae RctB inhibitors. hit rate 0.27% among 130,000. z-score (test concentration not listed). AID 504770. E. coli YBA685 rctB-dependent plasmid, OD600 growth, 3 h; stronger effect = lower value;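 active means z-score under -2 on both plates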;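 further: wells of about 30 µL received 100 nL stock; score is relative to mean and SD of the test wells; the first replicate is given; strong numbers were not always called active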
CapD inh: inhibitors of Bacillus anthracis CapD enzyme; purified CapD enzyme, fluorescence intensity read-out; stronger effect = lower value; some hits fall short of the stated cut; z-score (concentration not given with the values); hit rate 0.23% among 140,000; AID 492967;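 active means z-score under -4 in either of two replicates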;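 further: stock transfer was 100 nL into about 40 µL; score is relative to mean and spread of the plate; one replicate is shown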
The depositor's hits bear a star; / = no result given; & = joins results of further samples.

canonical_smiles | AID504770 | CapD inh
O=C(c1ccco1)c1cn(CCCOc2ccccc2)c2ccccc12 | 0.35 | 3.01
COC(=O)c1ccc(CSc2nc(N)c3c4c(sc3n2)CCCC4)o1 | -0.1 | /
CCOC(=O)C1CCCCN1S(=O)(=O)c1ccc2c(c1)CC(C)N2C(=O)C1CC1 (stereo not given) | -0.35 | -0.695
COc1ccc(/C=C2\C(=O)c3ccccc3C2c2ccccc2)cc1OC (stereo not given) | / | -0.19
Cc1cc2ccccc2c(=O)n1CC(=O)NCC(=O)Nc1ccc(F)cc1 | -0.6 | 1.57
CC(C)(C)SCC(=O)N1CCN(c2ncc(C(F)(F)F)cc2Cl)CC1 | -0.65 | -0.15
NC(=O)c1oc2ccccc2c1N | / | 83.4
CCOC(=O)c1ccc(NC(=O)CNC(=O)C23CC4CC(CC(C4)C2)C3)cc1 | -0.25 | 0.085
CN(Cc1ccccc1)C(=O)Cn1c(=O)oc2cc(S(=O)(=O)N3CCCC3)ccc21 | 0.65 | 0.785
CCN(C(=S)Nc1cccnc1)c1ccccc1 | -0.6 | 0.53
CCOC(=O)C1=C(Sc2nnc3nc(C)cc(C)n23)NC(=O)NC1c1ccccc1 (stereo not given) | -0.35 | 0.26
CCCn1c(COc2ccccc2)nc2ccccc21 | -0.65 | 0.545
c1ccc2[nH]c(SCc3nc4ccccc4o3)nc2c1 | 1.4 | /
CC1CC(C)CN(C(=O)c2ccc(N3CC4CC(C3)c3cccc(=O)n3C4)c(NC(=O)c3cc4ccccc4oc3=O)c2)C1 (stereo not given) | / | -0.865
Clc1ccc2nc(NC3=NCN(CCN4CCOCC4)CN3)nc(-c3ccccc3)c2c1 | -0.9 | 96.2
Cc1cccn2c(=O)c(/C=N/O)c(N3CCCCC3)nc12 | 1.55 | -0.695
CC(C)(C)NS(=O)(=O)c1ccc(/C=C/C(=O)O)cc1 | 0.1 | /
O=S(=O)(Nc1ccon1)c1cc(F)ccc1F | -1.2 | -0.57
CCn1cnc2sc(C(=O)N3CCC(C)CC3)c(C)c2c1=O | / | 0.16
CN1C(=O)CC(Nc2cccc3cccc(N)c23)C1=O (stereo not given) | -0.7 | /
Cc1cc(C)nc(Nc2ncc(O)n2-c2ccc(Cl)cc2)n1 | 0 | 0.405
CCOc1cc(/C=C2\SC(=S)N(C(Cc3ccccc3)C(=O)O)C2=O)ccc1O (stereo not given) | / | 2.02
O=C(Cc1c(Cl)cccc1Cl)NCC(c1ccco1)N1CCCC1 (stereo not given) | -0.9 | /
Clc1cccc(-c2nc(-c3ccccn3)no2)c1 | -1.1 | -0.18
CCN=c1sc(C(=O)OC)cc(=O)n1CC | -0.3 | 0.84

(continued)
canonical_smiles | AID504770 | CapD inh
CCOC(=O)N1CCC(=NNC(=S)Nc2ccc(Cl)cc2Cl)CC1 | 0.6 | /
O=C1c2ccccc2C2(c3ccccc3)N1CCN2C(=O)C(Cl)(Cl)Cl (stereo not given) | / | 0.6
C=CCN1CC(c2nc3ccccc3n2C(C)c2ccccc2)CC1=O (stereo not given) | -0.65 | /
CCS(=O)(=O)n1nc(-c2ccc(OC)cc2OC)cc1N | 0.35 | -0.22
CN1C(=O)C(=O)/C(=C(/O)c2ccccc2)C1c1ccccc1 (stereo not given) | 1.15 | -1.26
COC(=O)CSC1=C(C#N)C(c2ccc(C)o2)CC(=O)N1 (stereo not given) | / | -0.075
CC(C)(CO)NCc1cccs1 | -0.2 | -0.615
CCOC(=O)c1cnn(-c2ccc([N+](=O)[O-])cc2)c1C(F)(F)F | / | -0.34
CCOc1cccc2c1OC(c1ccc(OC)c(OC)c1)N1N=C(c3cccs3)CC21 (stereo not given) | / | 1.71
Cc1nnc(Oc2ccccc2C#N)c2ccccc12 | -0.85 | /
O=S(=O)(c1ccc(N=c2scc(-c3ccco3)n2/N=C/c2ccc3c(c2)OCO3)cc1)N1CCOCC1 | -0.7 | /
CCOc1ccc(C(=O)Nc2ccc(-c3nn4c(C)nnc4s3)cc2)cc1 | 2.15 | 7.36
Cc1c(NC(=O)CSc2nc3ccc(NC(=O)c4ccccc4)cc3s2)c(=O)n(-c2ccccc2)n1C | / | 0.45
O=C(CCN1C(=O)c2ccccc2Sc2ncccc21)NC1CCCC1 | -0.3 | -0.69
Cc1cc(C)nc(N(C#N)C(=S)N(C)C)n1 | -1.15 | 0.14
Cc1ccccc1CN(C)CC(O)COCc1ccc2c(c1)OCO2 (stereo not given) | -1.2 | /
CCOC(=O)c1ccc(NC(=O)CSCC(=O)O)cc1 | -1.7 | 0.135
O=C(NCc1cccs1)c1ccccc1O | -1.1 | 22
COCc1[nH]nc2c1C(c1ccc(F)c(F)c1)C(C#N)=C(N)O2 (stereo not given) | -0.35 | /
O=C(NC1=NN(c2ccccc2)C(=O)C1)c1ccc(Br)s1 | -0.15 | /
CCC(=O)Nc1ccc(-c2nc3ccccc3o2)cc1 | -3.5 | /
Cc1nn(-c2ccc(Cl)cc2Cl)c(=O)c2ccccc12 | -0.05 | -0.33
Cc1cccc(N2C(=O)c3cccc4cccc(c34)C2=O)n1 | -0.2&-0.2 | 44.2&41.9
COc1ccc(CC(=O)NC2=NC(=O)C(C)S2)cc1 (stereo not given) | -2.4 | 0.165
O=C(N=C1c2ccccc2CN1c1ccc2c(c1)OCO2)c1ccco1 | 1.2 | /

Overlap with the part before: 7 compounds; new compounds follow.
canonical_smiles | AID504770 | CapD inh
COCc1[nH]nc2c1C(c1ccc(F)c(F)c1)C(C#N)=C(N)O2 (stereo not given) | -0.35 | /
O=C(NC1=NN(c2ccccc2)C(=O)C1)c1ccc(Br)s1 | -0.15 | /
CCC(=O)Nc1ccc(-c2nc3ccccc3o2)cc1 | -3.5 | /
Cc1nn(-c2ccc(Cl)cc2Cl)c(=O)c2ccccc12 | -0.05 | -0.33
Cc1cccc(N2C(=O)c3cccc4cccc(c34)C2=O)n1 | -0.2&-0.2 | 44.2&41.9
COc1ccc(CC(=O)NC2=NC(=O)C(C)S2)cc1 (stereo not given) | -2.4 | 0.165
O=C(N=C1c2ccccc2CN1c1ccc2c(c1)OCO2)c1ccco1 | 1.2 | /
Nn1c(-c2cccs2)nc2sc3c(c2c1=O)CCCC3 | 0.1 | /
CC1CCCN(c2ccc(C(=O)NCCc3ccccc3)cn2)C1 (stereo not given) | -0.6 | /
CCOC(=O)N1CCN(c2nnc(Cc3cccnc3)c3ccccc23)CC1 | 1.1 | -0.92
COCCn1c(C)cc(C(=O)CSC2=Nc3ccccc3CS2)c1C | -1.2 | /
CC(=O)Nc1ccc(C(C)(C)C)cc1C#N | -0.45 | 0.09
CCOc1ccc(C2=NN3C(C2)c2cccc(OCC)c2OC3c2cccc(Cl)c2)cc1 (stereo not given) | / | 0.055
O=C(N/N=C/c1cccnc1)c1[nH]nc2c1CCc1ccccc1-2 | -1.25 | -0.22
Cc1ccc(COc2ccc3ccc(=O)oc3c2)cc1 | -1.1 | 54.4
Cc1ccc(NC(=O)Cn2cnc3sc(C(=O)Nc4ccc(Br)cc4C)c(C)c3c2=O)cc1Cl | / | -0.475
Cc1ccc2nc(-c3ccc(NC(=O)C4CC4)cc3)sc2c1 | -1.05 | 96.7
O=C(O)c1ccc(N/N=C/C2=C(N3CCOCC3)C(=C\c3ccccc3)/CC2)cc1 | -0.8 | /
O=C(O)CCCNC1C=CS(=O)(=O)C1 (stereo not given) | -0.65 | /
Cc1cc(N(C)Cc2ccccc2)ncn1 | -0.6 | -0.675
N#CC(C(=O)c1ccc(F)cc1)c1nc2ccccc2[nH]1 (stereo not given) | -0.05 | /
O=C(Nc1ccc2c(c1)OCO2)c1cnn2c(C(F)(F)F)cc(-c3ccco3)nc12 | -0.05 | 0.13
CCOC(=O)c1cc(CC)sc1NC(=O)C=C(C)C | 0.5 | 9.1
Cc1ccccc1S(=O)(=O)CC(SC#N)c1ccccc1 (stereo not given) | -0.15 | 0.055
CCc1c(C)nc2ccc(OC)cc2c1Cl | -0.3 | 14.3
C[C@@H](C(=O)N=c1sc2ccccc2n1C)N1C(=O)C2CC=CCC2C1=O (stereo not given in full) | -0.1 | /
Cc1[nH]ccc2c1[nH]c1cc(=O)ccc12 | -0.3 | -0.285
CC(=O)N1CCC(N(C2CC2)S(=O)(=O)c2ccc(Cl)cc2)CC1 | / | -0.87
O=C(NC1CCCCC1)c1ccc(NC2=NC3CS(=O)(=O)CC3S2)cc1 (stereo not given) | 0.5 | 0.445
COc1cccc(C2c3c(-c4ccccc4O)n[nH]c3C(=O)N2CCc2ccccc2)c1 (stereo not given) | 0.85 | 0.555
S=c1[nH]nc(-c2ccc[nH]2)o1 | -0.2 | /
CC(C)Cn1c(N)cc(=O)n(C)c1=O | 0.15 | /

Other records follow.
| canonical_smiles | AID504770 | CapD inh |
| --- | --- | --- |
| N#CC1=C(N)OC(c2ccccc2)=C(C(=O)c2ccccc2)C1c1cccc(Br)c1 (stereo not given) | / | -0.365 |
| CCc1cc2c(cc1C(=O)CSc1nnc(COc3ccc(C)c4c3CCC4)n1-c1ccccc1)C(C)(C)CCC2(C)C | / | 0.175 |
| COC(=O)c1cn(CC(=O)Nc2ccc(F)cc2)c2ccccc12 | 1 | / |
| CCOc1cc(C=C2C(=O)N(C)C(=O)N(C)C2=O)ccc1OCCOCCOc1ccc(C)cc1 | / | 0.31 |
| O=C(COc1ccccc1)N(Cc1ccccc1)c1ccccn1 | -0.25 | 0.515 |
| CCOC(=O)N1CCN(c2nc(C)c3c(n2)CC(c2ccco2)CC3=O)CC1 (stereo not given) | 1.55 | -0.44 |
| CC(C)[C@H](NC(=O)c1cccc(S(=O)(=O)N2CCCC2)c1)c1nc2ccccc2[nH]1 | -0.2 | / |
| CC[n+]1ccc(C)c2ccccc21 | 0.95 | -0.91 |
| COc1cc2c(cc1OC)C(Nc1nc(-c3ccccc3)cs1)=NC(C)(C)C2 | -0.95 | -0.05 |
| CN(Cc1ccccc1Cl)C(=O)C1CC(=O)N(c2ccc3c(c2)OCCO3)C1 (stereo not given) | -0.9 | / |
| Cc1cc(NC(=O)c2cccc(S(=O)(=O)N(C)C)c2)n(-c2ccccn2)n1 | 0.65 | / |
| CCCn1c(SCn2nnc3ccccc3c2=O)n[nH]c1=O | 0.25 | / |
| O=C(Nc1ccc(Cl)cc1)c1cn(Cc2cccnc2)c(=O)c2ccccc12 | / | 1.17 |
| C/[N+]([O-])=C\c1ccc(C#N)cc1 | -0.45&0.4 | -0.075 |
| O=C(C1CCCN(S(=O)(=O)c2ccccc2)C1)N1CCN(c2ccc(F)cc2)CC1 (stereo not given) | 0.45 | -0.63 |
| COC(=O)c1ccc(NC(=O)c2ccc(Cl)cc2)s1 | 0.15 | 1.44 |
| N#CC(C#N)=Cc1ccc(Sc2ccccc2)o1 | -0.65 | / |
| CCCCn1c(N)c(N(C)C(=O)CSc2nnc(-c3ccco3)n2CC)c(=O)[nH]c1=O | 2.5 | / |
| COc1cc(/C=C2\COC/C(=C\c3ccc(O)c(OC)c3)C2=O)ccc1O | / | -2.1 |
| CCOC(=O)c1sc(NC(=O)Cc2n[nH]c(=O)c3ccccc23)cc1C | 0.25 | / |

New compounds follow:
| canonical_smiles | AID504770 | CapD inh |
| --- | --- | --- |
| O=C(O)CSCC(=O)N1CCN(c2ccc(C(F)(F)F)cc2)CC1 | / | -0.23 |
| CCc1ccc(/C=C2\C(=O)N(Cc3ccco3)C(C)=C2C(=O)OC)cc1 | -0.25 | -0.53 |
| COc1ccc(OC)c(NC(=O)c2c(NCc3ccc(OC)c(OC)c3OC)sc3c2CCCCC3)c1 | / | 0.66 |
| CCCCC(=O)Nc1ccccc1CC | 1.95 | -0.59 |
| NC(=O)/C=C\c1cn(-c2ccccc2)nc1-c1ccc2c(c1)OCCO2 | 0.35 | 22 |
| Cc1ccc2cc(CCNS(C)(=O)=O)c(=O)[nH]c2c1 | 1.25 | / |
| CCCCCNc1nc(C)c(C(=O)OCC)s1 | 0.2 | / |
| CCOc1cc2c(cc1/C=C(\C#N)c1ccc(C(F)(F)F)cc1)OCO2 | -0.05 | -0.195 |
| CC(C)CCCC(C)C1CCC2C3CC=C4CC(OC(=O)OCc5ccccc5)CCC4(C)C3CCC12C (stereo not given) | / | 0.18 |
| Cc1cc(NC(c2ccccn2)c2c(C)[nH]c3ccccc23)no1 (stereo not given) | -1.65 | -0.385 |
| CCNC(=O)/C(=N\O)c1ccccc1 | 1.1 | 0.165 |
| CCc1ccc(NC(=O)CCS(=O)(=O)c2ccc(Br)cc2)cc1 | 0.6 | -0.03 |
| N#CCCn1nc(-c2ccccc2)c2c1Nc1ccccc1NC2c1ccc(F)cc1 (stereo not given) | -0.2 | / |
| Oc1ccc(/C=N/c2nccs2)cc1 | -0.75 | -0.08 |
| CNC(=O)Oc1cccc(C)c1 | 1.65 | 0.47 |
| CCOC(=O)C(Cc1ccccc1)C(=O)N1CCCc2ccccc21 (stereo not given) | -0.4 | -0.015 |
| CCOC(=O)c1cnc2c(C)cc(C)cc2c1Nc1ccc(C)cc1C | / | 0.24 |
| O=C(COC(=O)c1ccc(N2CCCC2=O)cc1)c1ccc(OC(F)F)cc1 | 0.1 | / |
| NCc1ccc(CN2CCCCCC2)cc1 | -0.3 | / |
| Cc1ccc(CS(=O)Cc2ccc(C(=O)NCC(C)c3ccccc3)o2)cc1 (stereo not given) | -0.6 | -1.38 |

Other compounds follow.
| canonical_smiles | AID504770 | CapD inh |
| --- | --- | --- |
| COc1ccc(CNC(=O)C2CCCN(c3ncnc4c3nc3n4CCCCC3)C2)cc1 (stereo not given) | 0.55 | 0.535 |
| O=c1cc(CSc2nc(Nc3ccc(F)c(F)c3)c3ccccc3n2)nc2ccccn12 | / | 0.77 |
| CC1CC(C)(C)CC2(C1)NC(=O)N(CC(O)c1ccccc1)C2=O (stereo not given) | 0.4 | / |
| O=c1cc(O)nc2ccccn12 | 1.45 | -1.01 |
| O=c1oc2ccc(Cl)cc2cc1-c1nc(-c2ccccc2)cs1 | / | -0.62 |
| COc1ccc(-n2nnnc2SCC(=O)NCC(C)C)cc1 | -0.7 | / |
| Oc1cccc(Oc2ccccc2)c1 | -0.8 | -0.22 |

Compound activity as filed in PubChem BioAssay.

An excerpt. The share of hits here may be higher or lower than overall.
